# KCNQ2 enhance: potentiators of rat KCNQ2 potassium channel; Potassium voltage-gated channel subfamily KQT member 2 (Rattus norvegicus), O88943; CHO-K1 KCNQ2, FluxOR thallium flux fluorescence; active compounds read high; B-score at 10 µM; actives 0.54% (n = 310,000);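 active means fluorescence ratio B-score at least 3 SD of library B-scores, with initial fluorescence B-score within 3 SD, cut at about 5.3 in these data; same plate scores as AID 2156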;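 further: B-score of peak minus minimum over baseline fluorescence ratio after K+ and Tl+ stimulus; positive B-score means potentiation of KCNQ2 with more thallium influx and brighter signal; only the inactives scoring about 0 or higher are listed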
# Target sequence (O88943 whole entry, looked up): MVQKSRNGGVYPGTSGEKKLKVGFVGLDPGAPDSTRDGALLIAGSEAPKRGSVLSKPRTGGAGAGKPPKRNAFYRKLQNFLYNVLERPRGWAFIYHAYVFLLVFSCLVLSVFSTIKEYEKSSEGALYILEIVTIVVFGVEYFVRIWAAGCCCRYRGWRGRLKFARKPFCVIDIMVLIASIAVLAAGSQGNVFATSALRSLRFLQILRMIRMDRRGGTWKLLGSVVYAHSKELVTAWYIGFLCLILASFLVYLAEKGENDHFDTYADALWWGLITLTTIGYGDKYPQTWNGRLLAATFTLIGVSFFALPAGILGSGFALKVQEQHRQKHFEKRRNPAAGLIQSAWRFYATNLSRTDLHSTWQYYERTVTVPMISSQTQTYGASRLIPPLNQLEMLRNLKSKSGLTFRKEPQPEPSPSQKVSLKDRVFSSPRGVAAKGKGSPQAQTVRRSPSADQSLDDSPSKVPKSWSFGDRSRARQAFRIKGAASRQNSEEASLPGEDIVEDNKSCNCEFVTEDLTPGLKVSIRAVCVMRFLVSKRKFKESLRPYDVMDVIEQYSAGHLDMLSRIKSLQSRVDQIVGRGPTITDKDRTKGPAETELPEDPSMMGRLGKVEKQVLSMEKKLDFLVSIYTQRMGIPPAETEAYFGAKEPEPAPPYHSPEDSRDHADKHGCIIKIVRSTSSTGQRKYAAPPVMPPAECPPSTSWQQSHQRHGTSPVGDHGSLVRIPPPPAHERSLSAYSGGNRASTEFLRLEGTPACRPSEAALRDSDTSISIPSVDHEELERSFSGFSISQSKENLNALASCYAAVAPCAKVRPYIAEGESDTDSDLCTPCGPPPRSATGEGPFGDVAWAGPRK
# KCNQ2 enhance baseline: second read-out of KCNQ2 enhance, no call of its own (marks repeat the call); B-score; compound at 10 µM; measured here: initial fluorescence intensity artifact check;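 brightness before thallium and not channel activity; 0 = typical well and far values either way flag optical interference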
# * = called active by the depositor; & = joins results of further samples.
canonical_smiles,KCNQ2 enhance,KCNQ2 enhance baseline
CC1(C)CC(NCc2cccc([N+](=O)[O-])c2)CC(C)(C)N1,0.25,0.17
Cc1ccc2c(c1)c1c3n2CCN=C3CCC1,1.1,0.68
CC(OC(=O)Cc1ccc(Br)cc1)C(=O)NC1CCCCC1C (stereo unspecified),1.4,-1.4
O=C(Nc1cnn(Cc2ccccc2)c1)c1nc2ncccn2n1,0.77,0.02
CCOC(=O)c1nnn(CC(=O)Nc2cccc(OC)c2)c1C(=O)OCC,0.55,-0.56
O=C(C1CC1)N1CCc2cc(S(=O)(=O)NCC3COc4ccccc4O3)ccc21 (stereo unspecified),0.24,2.1
NC(=O)CC(NC(=O)Cc1cccc2ccccc12)c1ccc(NCc2ccc(F)cc2)c([N+](=O)[O-])c1 (stereo unspecified),0.84,-0.78
COc1ccc(C(C)=O)cc1CC(=O)N(Cc1ccccc1)c1ccccc1,0.19,-0.1

# Gathered by group: the compounds so far containing an aryl methoxy group.
canonical_smiles,KCNQ2 enhance,KCNQ2 enhance baseline
CCOC(=O)c1nnn(CC(=O)Nc2cccc(OC)c2)c1C(=O)OCC,0.55,-0.56
COc1ccc(C(C)=O)cc1CC(=O)N(Cc1ccccc1)c1ccccc1,0.19,-0.1

# Next records.
canonical_smiles,KCNQ2 enhance,KCNQ2 enhance baseline
Cc1nc2sc(C(c3cccc(F)c3)N3CC(C)OC(C)C3)c(O)n2n1 (stereo unspecified),1.7,-0.59
COc1ccc(/C=N/NS(=O)(=O)c2ccc(F)cc2)cc1CN1CCSCC1,0.52,-1.1
O=C(NC1CCCN(Cc2ccc(Cl)cc2)C1)C1CCC1 (stereo unspecified),1.6,-1.5
Cn1nc(CC(=O)NC2CCCCC2)c2ccccc2c1=O,0.72,-0.65
CCOc1ccc(NS(=O)(=O)c2ccc(C(=O)NC3CCN(Cc4ccccc4)CC3)cc2)cc1,1,0.35
CCCSc1cc(NCCOC(C)=O)c([N+](=O)[O-])c2nonc12,0.9,-2.1
CCC(Sc1nnc(-c2ccco2)n1C)C(=O)Nc1nnc(C)s1 (stereo unspecified),0.23,1.4
O=C(Nc1nnc(COc2ccccc2)s1)C1CCN(S(=O)(=O)c2ccc(Cl)cc2)CC1,0.36,-0.03
O=C(NCCO)C(c1ccccc1)c1ccccc1,0.01,0.02
Cc1c(/C=N/NC(=O)CNc2ccccc2)c2ccccn2c1C(=O)c1ccc(Cl)cc1,0.03,0.21
CC1C(=O)N2CCCc3cc(S(=O)(=O)NCCc4ccccc4)cc1c32 (stereo unspecified),0.71,-0.98
Oc1ccccc1/C=N/n1c2ccccc2c2ccccc21,0.52,-1.6
Cc1ccc(C(=O)C[n+]2cc(-c3ccccc3)n3c2CCCCC3)cc1,0.69&0.08,0.15&-0.64
CN(c1ccccc1)S(=O)(=O)c1ccc(C(=O)Nc2nnc(C3=COCCO3)o2)cc1,0.09,0.07
CN(C(=O)CSc1nnc(N)s1)C1CCCCC1,1.4,-0.02
CCOC(=O)CNC(=O)c1ccc(C#CC2(O)CCCCC2)cc1,0.41,1.5
O=C(CSc1ncnc2nc[nH]c12)c1ccc([N+](=O)[O-])cc1,0.7,-0.01
CSC1=NCCN1C(=O)c1ccc(S(=O)(=O)N(C)C)cc1,1.4,-0.01
Cc1nn(-c2ccccc2)c(N2CCCC2)c1/C=N/NC(=S)Nc1cc(C(F)(F)F)ccc1Cl,0.04,1.4
CC(=O)Nc1ccc(N2C(=O)CC(c3ccccc3)CC2=O)cc1,1,0.14
Brc1ccc2ncnc(NCc3cccnc3)c2c1,3.7,0.13
Cc1cccc(N(CC(=O)Nc2c(C)n(C)n(-c3ccccc3)c2=O)S(C)(=O)=O)c1,0.66,-0.19
COc1cccc(NC(=O)Nc2ccccc2SC)c1,2.1,-0.56
CC(=O)Nc1cc2c(cc1NC(=O)Cn1nc(-c3ccccc3)ccc1=O)OCCO2,0.63,0.28
O=C(NC(=S)Nc1ccc2oc(=O)ccc2c1)c1cc2ccccc2o1,1,-1.7
CCN(CC)S(=O)(=O)c1ccc(N2CCCC2)c(C(=O)OCC(=O)Nc2cc(C)on2)c1,0.51,-0.91
CCOc1ccc(NCc2nnc(SCC(=O)Nc3nc(-c4ccccc4)cs3)n2-c2ccccc2)cc1,0.63,0.8
Cn1ccnc1SCC(=O)Nc1ccc2c(c1)OCCO2,1,-0.55
CCOC(=O)CSc1nc(N)c2c3c(sc2n1)CCCC3,0.01,0.54
Clc1ccccc1OCCCCN1CCCC1,1.4,1.3
COc1ccc(OCC(=O)NNc2c3ccccc3nc3ccccc23)cc1,0.02,-0.12
CCOC(=O)Cn1nc(CC)c2ccccc2c1=O,0.44,0.14
CN(C)c1ccc(C(O)P(=O)(OC2CCCCC2)OC2CCCCC2)cc1 (stereo unspecified),0.32,-0.82
CSc1ccc(CN2CCN(C(=O)c3ccc([N+](=O)[O-])cc3)CC2)cc1,0.02,-2.2
Cc1nc(-c2ccccc2)c(Cc2ccccc2O)c(=O)[nH]1,0.42,0.48
Nc1ccccc1/C=N\N=C/c1ccccc1N,0.84,-0.01
CC(C)NC(=O)CSCc1ccccc1Cl,0.4,0.12
COC(=O)C(Cc1ccccc1)NC(=O)CNC(=O)c1sc2ccccc2c1Cl (stereo unspecified),0.38,-1.4
CCCCn1c(N)c(Sc2ccc(C)cc2)c(=O)[nH]c1=O,0.29,-0.45
COc1cc(NC(=O)c2cccnc2Sc2ccc(C)c(C)c2)cc(OC)c1OC,1.1,-0.74
CCN(CCCNC(=O)c1[nH]c(C)c(C(C)=O)c1C)c1ccccc1,0.46,-0.27
CCCCNC(=O)Cn1nc(-c2ccc(C)cc2)ccc1=O,0.06,0.03
Cc1cccc(OCc2ccc(C(=O)Nc3cc(C)on3)o2)c1,0.34,2
Fc1ccc(Cn2ccc(-c3cnc(-c4ccccc4)s3)n2)cc1,0.48,0.73
O=C(Cn1c2[n+](c3ccc(C(F)(F)F)cc31)CCCCC2)Nc1c(F)cccc1F,1.6,-1
O=C(Nc1nnc(S(=O)(=O)N2CCCC2)s1)c1ccccc1F,1.5,0.27
O=C(NCCNC(=O)c1ccccc1O)c1ccccc1O,0.48,-0.88
Cc1ccnc(NC2CCCCC2)c1,3.1,0.45

# The list goes on, starting with the last 5 of the part before.
canonical_smiles,KCNQ2 enhance,KCNQ2 enhance baseline
Fc1ccc(Cn2ccc(-c3cnc(-c4ccccc4)s3)n2)cc1,0.48,0.73
O=C(Cn1c2[n+](c3ccc(C(F)(F)F)cc31)CCCCC2)Nc1c(F)cccc1F,1.6,-1
O=C(Nc1nnc(S(=O)(=O)N2CCCC2)s1)c1ccccc1F,1.5,0.27
O=C(NCCNC(=O)c1ccccc1O)c1ccccc1O,0.48,-0.88
Cc1ccnc(NC2CCCCC2)c1,3.1,0.45
CCOC(=O)C1CCN(C(=O)c2ccc(OC)cc2OC)CC1,0.14,-1.2
CCOc1ccccc1NC(=O)CSc1nnc(C2CC2)n1CC,0.76,-2.5
COc1ccc(OC)c(NC(=O)COC(=O)C2CCN(C(=O)c3ccc(Cl)cc3)CC2)c1,2.4,-0.76
COc1ccc(S(N)(=O)=O)cc1C(=O)NCCCN1CCN(c2cccc(Cl)c2)CC1,0.69,0.9
C=CCNC(=O)c1cc(=O)c2ccccc2o1,0.01,0.02
Cc1cc(=O)[nH]c(S)c1C#N,0.67,0
CCCC1CCC(=NNC(=S)NCCc2ccccc2)CC1 (stereo unspecified),0.11,1.9
CC(C)c1nnc(NC(=O)c2sc3ccccc3c2Cl)s1,0.71,-0.73
COc1cc(C)ccc1NC(=O)c1ccc(S(=O)(=O)N2CCOCC2)cc1,0.33,0.84
Cc1ccc(Nc2nc(-c3cccnc3)cs2)cc1C,1.3,-0.87
O=C(Nc1ccncc1)c1cc(-c2ccccn2)nc2ccccc12,0.26,1.9
COCc1ccc(C(=O)N2CCCC(C(=O)c3cccc(C(F)(F)F)c3)C2)o1 (stereo unspecified),1.8,1.7
CC(C)CNC(=O)c1ccccc1NC(=O)CSCc1ccccc1,0.9,1.3
O=C1CSC(=S)N1/N=C/c1cccnc1,0.18,-0.14
CCCC(C(=O)Nc1ccncc1)c1ccccc1 (stereo unspecified),0.01,-0.75
CC(=O)C(C)Oc1ccc2c3c(c(=O)oc2c1C)CCCC3 (stereo unspecified),0.15,0.36
Cc1ccc(CNC(=O)c2ccccc2NC(=O)CN2CC(C)OC(C)C2)cc1 (stereo unspecified),0.03,0.68
COc1ccccc1NC(=O)C(C)OC(=O)Cn1cnc2c1c(=O)n(C)c(=O)n2C (stereo unspecified),0.49,0.46
Cc1ccc(S(=O)(=O)N2CCN(C(=O)CCC(=O)NCc3cccc(C(F)(F)F)c3)CC2)cc1,3.8,-0.38
COc1ccc(NC(=O)c2cc(-c3ccco3)on2)cc1,1,-0.4
Cc1ccccc1C(=O)N1CCN(c2ccc(NC(=O)c3cccnc3)cc2)CC1,1.9,-1.1
O=C(NC1CCCC1)C(c1ccc(Cl)cc1)N(C(=O)c1csnn1)C1CC1 (stereo unspecified),0.01,-0.06
COc1ccccc1CNC(=O)c1cccc2c1C(=O)N(Cc1cccnc1)C2,0.26,0.52
COc1ccc(C(=O)/C=C/Nc2ccc(NC(C)=O)cc2)cc1OC,0.92,-0.57
COC(=O)c1[nH]c(C)c(/C(O)=C2\C(=O)C(=O)N(CCN3CCOCC3)C2c2cccs2)c1C (stereo unspecified),0.33,1.2
CCN(CCO)Cc1csc2ccccc12,2.3,0
O=C(CSc1nc2ccc(NC(=O)c3ccccc3C(=O)O)cc2s1)Nc1c(Cl)cccc1Cl,0.06,-0.68
COc1ccc(NC(=O)NCCCCc2ccccc2)cc1,0.21,0.27
O=C(O)C1CC(O)CN1C(=S)Nc1ccccc1 (stereo unspecified),1.8,1.2
CC1(C)CC(=O)C2=C(C1)OC(c1cccs1)C(C#N)=C2N (stereo unspecified),2.5,-1.2
CN1C(=O)/C(=C/c2ccc(OCc3ccccc3F)cc2)N(C)C1=S,0.01,0.08
Cc1ccc2cc(CN(CC3CCCO3)C(=O)NC3CCCCC3)c(=O)[nH]c2c1C (stereo unspecified),0.33,0.02
Clc1ccc(Cl)c2sc(N3CCCC3)nc12,2.3,1.3
CCCn1c(C)cc(/C=C(\C#N)C(=O)OCC(=O)NC(=O)NCC)c1C,2,0.85
Cc1cccc(C(=O)NCCc2csc(C)n2)c1,1.6,0.73
COC(=O)c1c(C(=O)OC)c(-c2ccc(F)cc2)n2c1CS(=O)C2 (stereo unspecified),1.2,-0.41
CCOc1ccccc1/C=N/NC(=O)c1cccc(S(=O)(=O)N2CCOCC2)c1,1.2,0.2
C/C(=N/NC(=O)c1sc(NS(=O)(=O)c2ccc(C)cc2)nc1C)c1sc(N)nc1C,0.86,0.83
O=C(c1ccccc1)c1ccc2c(c1)OCCOCCOCCO2,1.4,-1.3
Cc1cc(C)c2c(=O)n(-c3ccccc3)[nH]c2n1,0.7,0.11
NC(=O)NS(=O)(=O)Oc1ccccc1,0.73,0.11
O=C(Nc1cc(C(F)(F)F)ccc1N1CCOCC1)c1cccs1,0.03,-0.21
O=C(CSc1ccc(Cl)cc1)NC1CCCC1,0.01,1.4
Cn1nc(C(=O)Nc2ccc(S(=O)(=O)NCc3ccco3)cc2)c2ccccc2c1=O,0.64,1.9
CCCC(c1nnnn1C1CCCCC1)N1CCN(c2ncccn2)CC1 (stereo unspecified),0.01,-1.1
CCOC(=O)c1cc2ccc(OC)cc2oc1=O,1.2,0.61
COC(=O)C1(C)NC(c2ccccc2C)C2C(=O)N(c3ccccc3)C(=O)C21 (stereo unspecified),0.15,-1.3
COc1cccc2cc3c(=O)oc4ccccc4c3nc12,1.1,0.02
COc1ccc(C2CC(=O)c3sc(NC(C)=O)nc3C2)cc1 (stereo unspecified),0.57,-1
CC(C)NC(=O)NC(=O)CN1c2cccc3cccc(c23)S1(=O)=O,0.93,0
Cn1cc(CN2CCCC(CNC(=O)c3ccc4c(c3)OCO4)C2)c2ccccc21 (stereo unspecified),1.6,1
CCn1c(SCC(=O)O)nnc1-c1ccc2[nH]c(C)c(C)c2c1,1.1,-0.65
COc1cccc(NC(=O)CN(C)C(=O)c2c(-c3ccccc3)noc2C)c1,0.76,-0.58
CC(C)NC(=O)c1ccc2c(=O)n(C3CCCC3)c(=S)[nH]c2c1,0.01,0.14
CCOc1ccc(NC(=O)CN2CCN(CC(=O)Nc3ccc4c(c3)OCO4)CC2)cc1,0.01,1.7
COc1cc2nc(C3CCC3)n(NC(=O)c3ccco3)c(=O)c2cc1OC,0.05,0.24

# Carrying on:
canonical_smiles,KCNQ2 enhance,KCNQ2 enhance baseline
CCc1ccc(CNCc2ccc(F)cc2)cc1,3,-0.07
CC(=O)c1ccc(NC(=O)CSc2ccsc2[N+](=O)[O-])cc1,0.01,-0.08
CCc1nc2cc(Cl)c(Cl)cc2[nH]1,0.06,-1
COc1ccc(C(=O)/C=C2\NCCc3cc(OC)c(OC)cc32)cc1OC,0.18,0.28
O=C(NNC(=O)c1ccncc1)Nc1cccc([N+](=O)[O-])c1,1.7,0.2
Cc1ccc(NC(=O)Cn2nnc(-c3ccc4c(c3)OCO4)n2)cc1F,0.01,0.1
COc1cccc(NC(=O)C(=O)NCCCN2CCCC2=O)c1,0.4,-0.27
CCOc1ccccc1N1CC(C(=O)N2CCc3ccccc3C2)CC1=O (stereo unspecified),0.86,0.85

# Some of the compounds tested. The share of hits here may be higher or lower than overall.
